GLA inh pH 4.5 – qHTS Assay for Inhibitors of Human alpha-Galactosidase at pH 4.5; Alpha-galactosidase A (Homo sapiens), P06280; purified enzyme, 4-MU-alpha-Gal fluorescence, pH 4.5; activity change, negative = inhibition, % at 105 µM; 230,000 tested, under 10 active; AID 1467, 2008; inconclusive = small, poorly fitted or top-dose-only inhibition, or a rising curve; inactive = flat fitted curve, though single readings scatter; no compound was filed as active;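 further: 0% = full activity with enzyme and -100% = basal without enzyme; dose as in the result columns while the protocol names 77 µM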
Target sequence (P06280 whole entry, looked up): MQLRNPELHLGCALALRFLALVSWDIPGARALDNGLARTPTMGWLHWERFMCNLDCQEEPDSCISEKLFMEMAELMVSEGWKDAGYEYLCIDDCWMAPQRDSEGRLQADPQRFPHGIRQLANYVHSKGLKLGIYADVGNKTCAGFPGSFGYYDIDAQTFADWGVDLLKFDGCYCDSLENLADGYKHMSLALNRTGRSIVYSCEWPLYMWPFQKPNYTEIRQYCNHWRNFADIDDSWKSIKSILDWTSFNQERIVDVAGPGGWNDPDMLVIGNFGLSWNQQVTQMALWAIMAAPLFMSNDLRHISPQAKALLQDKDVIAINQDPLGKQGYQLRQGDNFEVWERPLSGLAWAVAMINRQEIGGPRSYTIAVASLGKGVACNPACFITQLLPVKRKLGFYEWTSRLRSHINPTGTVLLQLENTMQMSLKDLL
Rango release inh – qHTS Assay for Inhibitors of RanGTP induced Rango (Ran-regulated importin-beta cargo) - Importin beta complex dissociation. AID 540253, 2011. Potency, µM (titrated, usually from 46.1 µM), without a hit: top-dose activity change, negative = inhibition. hit rate 0.071% among 340,000. Snurportin-1 (Homo sapiens) + GTP-binding nuclear protein Ran (Homo sapiens) + Importin …. Biochemical FRET Rango-importin beta, RanGTP-induced dissociation; active means falling FRET ratio curve, often poorly fitted, with flat reads before Ran was added; inconclusive means other falling curves, or compound fluorescence or quenching; inactive means flat or rising ratio curve;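 further: potency means the concentration at half of the fitted maximal effect; % of control where 0% means no effect; nearly all actives have a fitted effect of over 45% in size; -100% = wells without RanGTP and RCC1; the record marks most hits as doubtful in a second field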
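Rango (0.1 uM)–importin beta (0.25 uM) complex; RanGTP-RCC1 trigger; 45 min RT; CFP/YFP FRET read.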
miR-21 FLuc – qHTS Assay for Modulators of miRNAs and/orActivators of miR-21; HeLa miR-21 FLuc reporter, luciferase, 48 h; Potency, µM (highest dose often 38.3 µM), for inactives: at the top dose reporter change, positive = more light; 340,000 tested, under 10 active; AID 2288, 2010; active = well fitted rising curve with a large enough effect; inconclusive = small, poorly fitted or top-dose-only effect; inactive = no such curve, though single readings can be large or run the other way;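 further: % of control where 0% means no effect; miR-21 action dims this reporter so a rising signal means less miR-21 action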
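Using DMEM plus 10% FBS, HeLa miR-21-FLuc cells are incubated with test compounds (final up to about 40uM) for 48 hours; firefly luciferase signal is then imaged following reagent-mediated lysis.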
Rango-impB inh – qHTS Assay for Inhibitors of Rango (Ran-regulated importin-beta cargo) - Importin beta complex formation; Importin subunit beta-1 (Homo sapiens), Q14974; Rango CFP/YFP FRET sensor + importin beta, 45 min; Potency, µM (doses to about 92.2 µM), without a hit: at the top dose inhibition of complex formation; hit rate 0.031% among 340,000; active = rising FRET ratio curve, often small or poorly fitted; inconclusive = mostly compound fluorescence or quenching in the first reads; inactive = flat curves in all reads;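 further: potency means the concentration at half of the fitted maximal effect; 0% = DMSO wells and 100% = buffer wells lacking importin beta; nearly all actives have a fitted effect of over 15% in size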
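FRET biosensor Rango (snurportin 1 IBB between N-terminal EYFP and C-terminal Cerulean), 50 nM in PBS/1 mM DTT/0.02% Tween-20/0.1% BSA, preincubated 5 min RT with compound; 0.125 microM importin beta added, 45 min RT, CFP/YFP FRET ratio read.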
Numbers without * were called inactive; ? = inconclusive; nt = no result given; & = joins results of further samples. An excerpt; rates above refer to the full screens.

GLA inh pH 4.5	Rango release inh	miR-21 FLuc	Rango-impB inh	mol
nt	17%	nt	0.1%	Cc1ccc(OCC(=O)NC2CCCC(C)C2C)c([N+](=O)[O-])n1 (stereo unspecified)
10	0%	7%	5.7%	Cc1ccnc(NS(=O)(=O)c2cnc(Cl)c(Br)c2)c1
-11	-2%	-1%	-0.3%	COc1cc(S(=O)(=O)N2CCN(C)CC2)c(OC)cc1Cl
-7	-5%	3%	1.3%	Cn1nc(-c2ccc3c(c2)OCCO3)c2ccccc2c1=O
2	1%	-1%	-1.3%	O=C(c1ccc(F)cc1)N1CCN(C(=O)c2cccnc2)CC1
nt	-12%	nt	-1.1%	COc1ccc(C(=O)C(C)OC(=O)c2nc3nccc(C)n3n2)cc1 (stereo unspecified)
nt	-11%	-3%	-1.9%	O=C(O)CC/C(=N/NC(=O)c1ccc(-c2ccccc2)cc1)c1ccccc1
nt	0%	-23%	1.3%	Cc1cc(=O)[nH]c2nnc(-c3ccc(Br)cc3)n12
nt	-13%	-2%	3.1%	CCOc1ccc(NC(=O)CS(=O)CC(=O)Nc2cccnc2)cc1 (stereo unspecified)
-4	-2%	-2%	-3.8%	CCCS(=O)(=O)N1CCC(C(=O)NCCCN2CCCC2=O)CC1
0	17%	-5%	-7.8%	CC(=O)OCc1cc(-c2nc3ccccc3[nH]c2=O)nn1-c1ccc(Cl)cc1
nt	4%	0%	2.1%	CC(C)CC1COC(=O)N1 (stereo unspecified)
nt	-18%	nt	2.2%	CC(C)=CC1C(C(=O)NCCc2ccccc2)C1(C)C (stereo unspecified)
4	1%	-2%	1.0%	C=CCNC(=S)NCC=C
0	-5%	-2%	-1.1%	Cc1nc(-c2nc(C(=O)NNS(C)(=O)=O)cs2)cs1
2	11%	-16%	-0.1%	CCOC(=O)c1c(C)n(C)c2cc(-c3ccc(C)cc3)c(O)cc12
-2	4%	-4%	2.8%	CCOC(=O)c1sc(CS(=O)(=O)c2ccc(Cl)cc2)nc1C
nt	-5%	nt	-1.9%	Cc1cc2nc(-c3ccccc3O)[nH]c2cc1C
nt	-5%	nt	6.5%	C[C@H]1CN([C@@H](C)CO)C(=O)c2cc(NC(=O)Cc3ccccc3)ccc2O[C@H]1CN(C)Cc1ccccc1
11	0%	-2%	0.3%	COc1ccc(C(=O)NCC(=O)NCC(=O)OCC(=O)C(C)(C)C)cc1
-4	1%	-15%	0.7%	CCOC(=O)c1nnn(CC(=O)N2N=C(c3cccc4ccccc34)CC2c2ccccc2)c1C(=O)OCC (stereo unspecified)
6	-14%	-22%	1.9%	CSc1nc2cc3c(cc2n1C(=O)c1ccc(C)cc1)OCCO3
nt	7%	-1%	2.7%	CCN(CCn1cccn1)C(=O)C1CCC(=O)N(CCc2cccc(F)c2)C1 (stereo unspecified)
nt	1%	nt	-0.4%	CN(C(=O)c1ccccc1C(=O)OCC(=O)c1ccc(Br)cc1)c1ccccc1
-8	-13%	3%	-0.7%	COc1ccccc1CNc1nc(-c2cc(C)n(C)c2C)cs1
nt	10%	19%	0.0%	CCCCNC(=NCc1cccc(C(F)(F)F)c1)Nc1ccccc1
nt	0%	-5%	2.0%	Cc1ccc(S(=O)(=O)/N=C(/Sc2ccccc2C(=O)O)c2ccccc2)cc1
nt	0%	-5%	-4.4%	COc1ccccc1OCC(=O)NCC(c1cccs1)N1CCOCC1 (stereo unspecified)
0	-21%	-26%	-5.0%	Cc1occc1C(=O)Nc1sc2c(c1C(N)=O)CCCCC2
nt	-6%	1%	-1.1%	Cc1ccc(N2C(=NC(=O)c3ccccc3)SC3CS(=O)(=O)CC32)cc1 (stereo unspecified)
nt	0%	nt	-1.4%	C[C@]12c3[nH]c4cc(-c5ccco5)ccc4c3CCN1C(=O)[C@@H](CC(=O)NCc1cccc(C(F)(F)F)c1)C[C@@H]2C(=O)N1CCOCC1
-1	-17%	-32%&-46%	0.4%	Nc1c(C(=O)Nc2cccc(F)c2)nnn1-c1cccc(C(F)(F)F)c1
3	-7%	3%	-0.6%	COc1cc(C(=O)O)c2ccccc2n1
nt	-15%	nt	-2.8%	O=C(Nc1ccc(Cl)cc1Cl)c1ccc2c(c1)OCCO2
-4	-6%	0%	-2.5%	COc1ccc2nc(N3C(=O)CC(Cc4ccc(Cl)cc4)C3=O)sc2c1 (stereo unspecified)
-8	-8%	-3%	-0.1%	COc1ccc(C2CC(=O)c3cnc(NC(=O)c4ccccc4)nc3C2)c(OC)c1 (stereo unspecified)
-14	-9%	13%	0.3%	Cc1cccc(C(=O)/C=C2/c3ccccc3CC(C)(C)N2C)c1
6	9%	-34%	-1.1%	O=c1c2ccccc2cnn1-c1ccc(Cl)cc1
nt	30%	1%	3.7%	COc1ccccc1CNC(=O)CCCC(=O)n1ncc2cc(C)ccc21
-3	0%	-4%	-2.0%	CN(C)C(=O)c1sccc1Oc1ccc(F)cc1[N+](=O)[O-]
-22	0%	3%	?	Cc1cc2c(NC(=O)Nc3ccc(F)cc3)cccc2nn1
9	30%	-32%	6.6%	Cc1ccc(NC(=O)NNC(=O)c2ccccc2)cc1
3	-3%	-1%	1.2%	Cc1ccc(N2CCN(S(=O)(=O)N3CCCCCC3)CC2)cc1Cl
-3	10%	-2%	-0.3%	CC(=O)c1ccccc1OC(=O)CCN1C(=O)c2ccccc2C1=O
5	-20%	-10%	3.5%	CCn1c(=O)n(CC(=O)NCc2ccco2)c(=O)c2ccccc21
nt	-7%	0%	-3.6%	CC(C)c1ccc(C(C)NC(=O)C2CCCC2)cc1 (stereo unspecified)
nt	-17%	nt	1.2%	COc1ccc(NC(=O)COC(=O)Cc2c[nH]c3ccccc23)cc1Cl
nt	-15%	nt	3.3%	Cc1ccc(S(=O)(=O)NCC(=O)OCC(=O)c2ccc(S(=O)(=O)N3CCCCC3)cc2)cc1C
-2	2%	4%	0.6%	Cc1ccccc1OCC(=O)Nc1ccccc1N1CCC(C)CC1
nt	-13%	8%	-1.4%	COc1ccc(CNC(=O)CN(C(=O)c2snc(C(N)=O)c2N)c2ccc(F)cc2)cc1
-11	-6%	-1%	1.0%	CC(=O)Nc1ccc(NC(=O)CSc2nc(C)nc3sc(C)c(C)c23)cc1
-5	18%	0%	-2.1%	CCOC(=O)c1c(NC(=O)CSc2nc3ccccc3c(=O)n2-c2ccc(F)cc2)sc(C(C)=O)c1C
0	22%	-7%	-0.6%	CO/N=C/NC(=O)NOCc1ccc(Cl)cc1Cl
2	?	-28%	?	COc1ccc(/C=C2\CCc3c2nc2ccccc2c3C(=O)O)cc1OC
nt	-17%	nt	-5.4%	Nc1ccccc1N1C(=O)c2cccc3cccc(c23)C1=O
nt	0%	-19%	-0.4%	Cc1ccc(NC(=O)C(OC(=O)c2cnc(C)cn2)c2ccccc2)c([N+](=O)[O-])c1 (stereo unspecified)
nt	0%	nt	-1.8%	Cc1cc(C(=O)NNC(=O)CN2C(=O)NC(C)(c3ccccc3)C2=O)c(C)o1 (stereo unspecified)
-6	-1%	4%	-5.1%	O=c1[nH]c(NNC(=S)NC2CCCCC2)nc2c1C1(CCCC1)Cc1ccccc1-2
nt	3%	-3%	-0.3%	COc1ccc(-n2c(SCC(=O)NCC3CCCO3)nc3c(c2=O)SCC3)cc1 (stereo unspecified)
2	-7%	-7%	-4.2%	CSCC[C@H](NC(=O)Nc1ccccc1C)C(=O)O

Continued.
GLA inh pH 4.5	Rango release inh	miR-21 FLuc	Rango-impB inh	mol
-18	-12%	-3%	4.5%	COc1cc(OC)c(C2C(C(=O)Nc3ccc(C)cc3C)=C(C)Nc3ncnn32)cc1OC (stereo unspecified)
1	-3%	-4%	-4.3%	Cc1ccc(CNC(=O)Cn2c(=O)oc3ccccc32)o1
-6	1%	1%	0.8%	CCCCCn1nc(C(=O)OCC(=O)c2c(N)n(C)c(=O)n(C)c2=O)c2ccccc2c1=O
nt	-23%	nt	?	COc1cc(NC(C)CCCNC(C)C)c2ncccc2c1OC (stereo unspecified)
7	20%	-2%	-2.0%	CCOC(=O)CNc1nc(Cl)nc(Nc2ccc(C)cc2)n1
-3	15%	-9%	-1.2%	CCCCN1CC2([N+](=O)[O-])C=CC(=O)C([N+](=O)[O-])(C1)C2CC(=O)c1ccccc1 (stereo unspecified)
nt	1%	nt	5.1%	COc1ccc(C(=O)NCCn2cc(SCC(=O)Nc3nnc(C)s3)c3ccccc32)cc1
nt	-14%	-8%	-3.1%	C/C(=N\NC(=O)c1ccc(O)cc1)c1cccc(NC(=O)c2ccccc2C)c1
-9	1%	0%	2.6%	O=C1C2C3CCC(C3NCc3ccccc3)C2C(=O)N1Cc1ccccc1 (stereo unspecified)
6	1%	-11%	3.5%	Nc1ccc(C(=O)NCC2(c3ccccc3)CCCC2)cc1
7	0%	0%	1.9%	Cn1c(=O)c2c(ncn2CC(=O)N2CCOCC2)n(C)c1=O
3	1%	-7%	0.2%	OC(c1ccc(Cl)cc1)C(O)c1nc2ccccc2[nH]1 (stereo unspecified)
nt	-8%	nt	-0.6%	COCCN(C(=O)c1ccc2c(c1)S(=O)(=O)N=C1CCCCCN12)c1c(N)n(CC(C)C)c(=O)[nH]c1=O
0	0%	-4%	-3.2%	Cc1ccc2c(c1)[nH]c1c(=O)n(CCN3CCCCC3)cnc12
nt	2%	nt	-0.7%	CCCCN1C(N)=NC[C@@H]1Cc1ccccc1

Full records, looked up by structure:
`C/C(=N\NC(=O)c1ccc(O)cc1)c1cccc(NC(=O)c2ccccc2C)c1` reads GLA inh pH 4.5: nt; Rango release inh: -14%; miR-21 FLuc: -8%; Rango-impB inh: -3.1%
`COCCN(C(=O)c1ccc2c(c1)S(=O)(=O)N=C1CCCCCN12)c1c(N)n(CC(C)C)c(=O)[nH]c1=O` reads GLA inh pH 4.5: nt; Rango release inh: -8%; miR-21 FLuc: nt; Rango-impB inh: -0.6%

Retrieved by structure from the list above, 5 records:
GLA inh pH 4.5	Rango release inh	miR-21 FLuc	Rango-impB inh	mol
-9	1%	0%	2.6%	O=C1C2C3CCC(C3NCc3ccccc3)C2C(=O)N1Cc1ccccc1 (stereo unspecified)
3	1%	-7%	0.2%	OC(c1ccc(Cl)cc1)C(O)c1nc2ccccc2[nH]1 (stereo unspecified)
7	0%	0%	1.9%	Cn1c(=O)c2c(ncn2CC(=O)N2CCOCC2)n(C)c1=O
-3	15%	-9%	-1.2%	CCCCN1CC2([N+](=O)[O-])C=CC(=O)C([N+](=O)[O-])(C1)C2CC(=O)c1ccccc1 (stereo unspecified)
nt	-8%	nt	-0.6%	COCCN(C(=O)c1ccc2c(c1)S(=O)(=O)N=C1CCCCCN12)c1c(N)n(CC(C)C)c(=O)[nH]c1=O

Remaining list, next part.
GLA inh pH 4.5	Rango release inh	miR-21 FLuc	Rango-impB inh	mol
1	-5%	-53%	0.8%	S=C(NCc1ccco1)Nc1ccc2c(c1)OCCO2
-4	6%	1%	0.0%	CC(=O)NCC1CCCN(c2nc3nonc3nc2N(C)Cc2ccccc2)C1 (stereo unspecified)
nt	0%	nt	6.9%	O=C1CC2(CCN(C(=O)c3ccccc3Br)CC2)Oc2ccccc21
15	?	-4%	?	CNc1nc(-c2ccccc2)cc(C(F)(F)F)c1C#N
nt	0%	0%	-1.2%	COc1ccc(S(=O)(=O)NCCC(=O)Nc2ccc(C)cc2)cc1
nt	0%	3%	5.9%	CN(C)CCCN(C(=O)c1ccc([N+](=O)[O-])o1)c1nc2cc3c(cc2s1)OCO3
nt	-23%	-11%	?	Cc1cc(N2CCOCC2)nc2ccc(NC(=S)NC(C)C)cc12
nt	-10%	-7%	1.2%	Cc1ccc(NC(=O)c2cc(-c3cc(Cl)ccc3O)n[nH]2)cc1C
-15	4%	?	0.6%	Cc1ccc(Nc2nc(-c3cccnc3)nc3ccccc23)cc1
nt	9%	nt	1.1%	COC1C=CC=C(C)C(=O)NC2=CC(=O)C(N)=C(CC(C)CC(OC)C(O)C(C)C=C(C)C1OC(N)=O)C2=O (stereo unspecified)
0	24%	-26%	0.9%	CCOC(=O)C1=C(C)N(c2ccc(OC)cc2)C(=O)/C1=C\c1cccs1

Screening data as filed in PubChem BioAssay.
